# RecA splice inh: blocks M. tuberculosis RecA intein splicing | P9WHJ3 | cell-free RecA intein splicing, fluorescence | inhibition, %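 (about 9 µM by stock and volumes)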 | actives 0.75% (n = 290,000); in the data active = inhibition above about 30%; inconclusive = no clear call, values can overlap the other calls;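 note: 0% = vehicle wells and 100% = reference inhibitor control wells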
# Target sequence (P9WHJ3 whole entry, looked up, canonical isoform): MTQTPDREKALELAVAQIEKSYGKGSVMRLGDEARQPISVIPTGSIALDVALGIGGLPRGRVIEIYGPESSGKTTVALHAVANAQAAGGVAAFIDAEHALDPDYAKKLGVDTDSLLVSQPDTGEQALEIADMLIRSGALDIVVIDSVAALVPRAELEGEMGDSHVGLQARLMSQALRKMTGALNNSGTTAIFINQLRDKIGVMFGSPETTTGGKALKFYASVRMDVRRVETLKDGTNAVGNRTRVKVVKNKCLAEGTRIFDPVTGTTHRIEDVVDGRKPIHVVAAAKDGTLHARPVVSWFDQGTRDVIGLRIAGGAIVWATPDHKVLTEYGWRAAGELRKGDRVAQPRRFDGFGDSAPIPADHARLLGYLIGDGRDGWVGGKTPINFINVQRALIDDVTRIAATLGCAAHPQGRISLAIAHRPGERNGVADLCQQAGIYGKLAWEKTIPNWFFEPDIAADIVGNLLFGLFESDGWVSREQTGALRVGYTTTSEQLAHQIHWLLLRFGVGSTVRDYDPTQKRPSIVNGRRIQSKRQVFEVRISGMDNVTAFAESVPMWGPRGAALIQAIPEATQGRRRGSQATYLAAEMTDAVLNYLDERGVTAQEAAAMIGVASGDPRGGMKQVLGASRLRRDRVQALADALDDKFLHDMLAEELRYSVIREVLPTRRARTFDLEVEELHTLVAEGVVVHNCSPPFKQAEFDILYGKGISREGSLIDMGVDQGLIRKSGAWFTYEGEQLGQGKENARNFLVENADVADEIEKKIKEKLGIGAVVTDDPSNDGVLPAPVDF
# YopH PTP inh: blocks Yersinia enterocolitica YopH tyrosine phosphatase; fluorescence Ex485/Em525; inhibition, %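 (about 10 µM by stock and volumes)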; actives 0.16% (n = 140,000);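 active = inhibition of 50% or more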;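 note: controls were vehicle for no effect and minimum signal wells for full effect; inactives centre near -20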
# Arbovirus anti: antivirals against arbovirus infection; inhibition, % at 10 µM; arbovirus infection cell-based antiviral screen; actives 0.37% (n = 200,000);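 active = inhibition from about 30%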;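 note: bluetongue infection of BSR cells; cell survival read as ATP light after 72 h; 0% = infected wells without compound and 100% = uninfected wells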
# Mtb betalactam: beta-lactam sensitization of Mtb H37Rv | M. tuberculosis H37Rv growth with meropenem, percent inhibition; hits of this screen are not shown here | inhibition, % at 25 µM | actives 0.27% (n = 330,000) | AID 434955;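 active = about 74% or more and at least 40 points above the plate without the antibiotic, then above 30% in a dose series; inconclusive = first-round hits that could not be retested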;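 note: growth measured after seven days incubation then overnight dye step; 0% = bacteria only wells and 100% = bacteria with antibiotic; twin plates without the antibiotic show which effects depend on it; some results filed as inactive read as strong as hits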
# Mtb growth: M. tuberculosis H37Rv growth inhibitors, H37Rv strain (AID 1626). M. tuberculosis H37Rv growth inhibition; higher % means a stronger effect. inhibition, % at 10 µM, or IC50 in µM where a hit was titrated. actives 0.95% (n = 220,000);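 active = confirmed in a dose series; inconclusive = inhibition above 80% but not taken into the dose series; inactive = below 80% or under 30% at every dose of the series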;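 note: bacteria incubated seven days before Alamar blue readout; 0% = bacteria only wells and 100% = bacteria with antibiotic wells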
# Arbovirus anti repeat: recorded beside Arbovirus anti, whose call it bears; inhibition, %; measured here: 10K subset replicate screen; many hits read low in the repeat;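 first of two repeat runs on a subset; 0% = infected and 100% = uninfected wells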
# Active calls of the source: *; ? = inconclusive; . = no result given; & = joins results of further samples. Not all compounds are listed; the hit share may differ from the screen's.
SMILES,RecA splice inh,YopH PTP inh,Arbovirus anti,Mtb betalactam,Mtb growth,others
COc1ccc(C)cc1Nc1nc(-c2ccccc2O)nc2ccccc12,-8.8,.,.,-1,.,
O=C(COC(=O)CC1CC2CCC1C2)NC(=O)NC1CCCC1 (centres undefined),2.9,.,-1,-3,-3%,
CCn1c(=O)cc(OCC(=O)N2CCC3(CC2)OCCO3)c2ccccc21,-1.2,-28,-8,6,-3%,
CCOc1ccc(NC(=O)COC(=O)c2ncc(Cl)c(Cl)c2Cl)cc1,0.0,-1,5,7,-2%,
CC(Cc1ccccc1)[n+]1cc(/N=C(\[O-])N(C)C)on1 (centres undefined),0.0,-11,5,-1,.,
O=C(O)c1cccc(Nc2ncnc3ccc(Br)cc23)c1,1.1,.,.,-11,-1%,
CCN1CCN(C(=S)Nc2ccc(Cl)cc2)CC1,0.9,-13,5,-4,-2%,
O=C(O)CCNC1CCCCC1,2.1,.,.,-5,-4%,
CC(=O)c1ccc(S(=O)(=O)N2CCN(c3ccccc3F)CC2)cc1,1.2,.,7,17,-3%,
O=C(Nc1ccc(Cl)cc1)N[C@@H]1c2c(ccc3ccccc23)OC[C@@H]1CO,-3.2,-3,1,-10,4%,
CN(Cc1ccccc1)S(=O)(=O)c1ccc(Cl)c(C(=O)NCCCN2CCOCC2)c1,0.5,.,.,-2,.,
CCOc1ccc(NC(=O)C(=O)NCCN2CCN(S(=O)(=O)c3ccccc3)CC2)cc1,2.8,.,.,-1,.,
N#Cc1cccc(NC(=S)Nc2ccccc2)c1,-1.6,-11,-2,-2,-4%,
COc1ccc2c(c1OC)C(=O)OC2C1c2c(cc3c(c2OC)OCO3)CCN1C (centres undefined),-2.3&0.4,-20&-29,-16&-15,-9&-4&-8,-7%&4%,
CC(C)(C)n1cnc2cc(NCc3cccs3)ccc21,-1.4,.,5,2,2%,
COc1ccc(C(=O)N2CCC(C(=O)c3ccc(F)cc3)CC2)cc1,-0.2,-23,16,-6,-7%,
Clc1ccc2c(N3CCNCC3)ccnc2c1,-18,-20,3,-5,1%,
CCOc1ccc(N2C(=O)CC(Sc3nc4ccc(OCC)cc4s3)C2=O)cc1 (centres undefined),-4.0,-27,.,96,77%,
COc1ccccc1C1SCCN1S(C)(=O)=O (centres undefined),0.9,-1,4,4,-1%,
O=C(Nc1ccccc1O)/C(=C\c1ccccc1)NC(=O)c1ccccc1,2.8,.,-3,-1,0%,

# 3 compounds from above, arranged by heavy-atom count, rising:
SMILES,RecA splice inh,YopH PTP inh,Arbovirus anti,Mtb betalactam,Mtb growth,others
Clc1ccc2c(N3CCNCC3)ccnc2c1,-18,-20,3,-5,1%,
CC(C)(C)n1cnc2cc(NCc3cccs3)ccc21,-1.4,.,5,2,2%,
COc1ccc(C(=O)N2CCC(C(=O)c3ccc(F)cc3)CC2)cc1,-0.2,-23,16,-6,-7%,

# More results.
SMILES,RecA splice inh,YopH PTP inh,Arbovirus anti,Mtb betalactam,Mtb growth,others
CCOC(=O)c1sc(N)c(C(=O)OCC)c1C,0.6,.,.,-11,-5%,
C#CCOCCOCCOCCNc1nc(N2CCN(C(=O)C([C@@H](C)CC)n3cc(C(N)COC(=O)C(F)(F)F)nn3)CC2)nc(N2CCN(C(=O)[C@H](Cc3cc4ccccc4[nH]3)n3cc(C(N)CO)nn3)CC2)n1 (some centres undefined),-1.7,.,.,-7,-6%,
CC(=O)Oc1ccc2nc(-c3ccc(Br)o3)oc(=O)c2c1,21,.,.,2,.,
CCOC(=O)c1ccc(NC(=O)CCNC(=O)c2ccc([N+](=O)[O-])cc2)cc1,1.8,-23,-14,91,>100µM*,
Cc1cccc(C)c1NC(=O)CSc1nnc(NC(=O)C2CC2)s1,2.9,.,.,5,.,
COCCC(=O)Nc1ccc2c(c1)CN(C(=O)CCOC)CC2,2.2,.,3,-2,0%,
COc1ccc(CC2(C)OC(c3ccc([N+](=O)[O-])cc3)=NN2C(C)=O)cc1 (centres undefined),7.9,.,.,3,-6%,
Nc1nc(-c2ccccc2)cc(-c2ccccc2O)n1,6.2,-6,-3,30,1%,
Nc1c(-c2ccccc2Cl)cnn1-c1cccc([N+](=O)[O-])c1,0.1,-18,2,-4,-3%,
COc1cc(C)nc(NC(=O)COc2ccc(Cl)cc2C)n1,1.2,-17,-2,-5,-12%,
CC1OC2(C)OC(=N)C1(C#N)C(C#N)(C#N)C2c1ccccc1 (centres undefined),-203,-4,7,0,-1%,
O=C(CCc1nnc(Cc2c[nH]c3ccccc23)o1)NCC1CC12CCCCC2 (centres undefined),1.1,.,-10,-3,3%,
COc1ccc(C)cc1NC(=O)NCc1ccccn1,0.3,.,-5,-5,-3%,
CCOC(=O)c1nc(Nc2ccc(C)cc2)c2ccccc2n1,1.4,-45,-4,-7,-16%,
CSc1ccccc1C(=O)OCC(=O)NC1CCS(=O)(=O)C1 (centres undefined),-2.2,.,12,-1,2%,
CCN(C(=O)CSc1nnc(-c2ccc(F)cc2)c2ccccc12)C1CCS(=O)(=O)C1 (centres undefined),4.1,.,5,4,1%,
CC(C)=CC(=O)OCC(=O)NC(=O)NC(C)(C)C,.,-132,3,-5,5%,Arbovirus anti repeat=0
COc1ccc2c3c([nH]c2c1)C1CC2C(CC(O)C(OC)C2CO)CN1CC3 (centres undefined),-29,.,.,-10,-5%,
C=C(C=O)C[C@@H]1C[C@H](O)C2OC3C[C@]4(C)OC5/C=C\CC6OC7C(CC=CCC6OC5CCCC4OC3CC2O1)OC1CC2OC3CC(=O)OC3C[C@@H](C)C[C@@]2(C)OC1C[C@@H]7C (some centres undefined),-2.5,.,.,-1,?,
CC(CN1CCCC1)OC(=O)C(c1ccccc1)c1ccccc1 (centres undefined),-2.0,.,.,-8,.,

# Retrieved one by one from the list above (two):
SMILES,RecA splice inh,YopH PTP inh,Arbovirus anti,Mtb betalactam,Mtb growth,others
CC(C)=CC(=O)OCC(=O)NC(=O)NC(C)(C)C,.,-132,3,-5,5%,Arbovirus anti repeat=0
O=C(CCc1nnc(Cc2c[nH]c3ccccc23)o1)NCC1CC12CCCCC2 (centres undefined),1.1,.,-10,-3,3%,

# (further entries)
SMILES,RecA splice inh,YopH PTP inh,Arbovirus anti,Mtb betalactam,Mtb growth,others
CCC1C(C#N)=C(N)Oc2c1c(=O)oc1ccccc21 (centres undefined),1.1,.,.,8,.,
COCCN(C(=O)COC(=O)CCS(=O)(=O)c1ccccc1)c1c(N)n(Cc2ccccc2)c(=O)[nH]c1=O,0.9,.,.,-4,.,
CCOC(=O)C1CCN(C(=O)c2cc(C)n(C(C)(C)C)n2)CC1,0.6,.,.,3,-7%,
CCn1c(Cc2ccccc2)nnc1SCc1nc2ccccc2c(=O)[nH]1,-2.2,-18,5,-6,-3%,
CCOC(=O)c1c(C)c(C(=O)Nc2ccc3c(c2)OCCO3)c(C)n1C,2.2,-3,-14,48,4%,
COc1ccc(CCC(=O)NCCc2cnc[nH]2)cc1,0.3,.,.,-9,.,
COc1cc(/C=N/NC(=O)c2sc(N)c(C#N)c2C)ccc1O,-2.4,-25,1,7,-4%,
O=C(COc1coc(CN2CCc3ccccc3C2)cc1=O)Nc1cccc(F)c1,-0.3,.,.,1,.,
O=C(O)COc1ccc(/C=N/NC(=O)C(O)(c2ccccc2)c2ccccc2)cc1,-0.3,.,.,5,.,
Cc1ccc(S(=O)(=O)NCCC(=O)OCC(=O)NCCc2ccccc2)cc1C,-1.7,.,.,-1,.,
COC(=O)C1=C(O)/C(=C/c2ccc(OCC(=O)Nc3ccccc3)cc2)N=C1C,-13,.,.,51,.,
COc1ccc(CC(NC(C)=O)C(=O)NC2CCN(c3nc(C)cc(C)c3C#N)CC2)cc1 (centres undefined),-1.6,.,2,-8,.,
CCOC(=O)Cc1nn(Cc2ccc(Cl)cc2)c(=O)c2ccccc12,1.0,.,0,3,4%,
CC(C)c1ccc(/C=C/C(=O)n2nnc3ccccc32)cc1,11,-6,-22,1,.,
O=c1c(-c2ccccc2)n[nH]c2ccccc12,.,5,8,1,-2%,
Cc1cc(C(=O)NNC(=S)NCc2ccco2)n(C)n1,5.1,-14,-1,-1,-9%,
Cc1cc(C)c2cc(C)c3nnc(SCC(=O)NCc4ccc5c(c4)OCO5)n3c2c1,2.5,-43,-4,4,-6%,
O=C1NC(=S)N(C2CC2)C(=O)/C1=C/c1ccc2c(c1)CCN2CCCCl,3.1,16,-4,-5,6%,
O=C(NCc1ccc2c(c1)OCO2)C1CCC(CNS(=O)(=O)c2cccc3nsnc23)CC1 (centres undefined),1.2,-21,-18,-4,-5%,
C=CCc1ccccc1OCC(O)CN1CCN(c2ccc(OC)cc2)CC1 (centres undefined),-2.9,-49,10,?,-5%,
COc1cc(Nc2ccc(S(=O)(=O)N3CCN(C)CC3)cc2[N+](=O)[O-])cc(OC)c1,0.8,.,.,-9,.,
COc1ccc(S(=O)(=O)Nc2ccccc2C(F)(F)F)cc1,-0.4,-20,3,6,-15%,
CCCCCCSc1nc2c(c(=O)[nH]c(=O)n2C)n1C,3.4,-32,11,3,7%,Arbovirus anti repeat=-5
COc1cccc(-c2cc(C(F)(F)F)n3nc(C(=O)Nc4c(C)n(C)n(-c5ccccc5)c4=O)cc3n2)c1,-2.3,.,-2,1,4%,
CN(C)CCCN(C(=O)c1ccc2c(c1)CCCC2)c1nc2ccc(Cl)cc2s1,5.1,-25,-41,100,?,
CCOC(=O)c1ccc(NC(=O)c2nc[nH]c2C(=O)N[C@@H](CCCCNC(=O)OC(C)(C)C)C(=O)OC(C)(C)C)cc1,1.2,.,.,8,18%,
COc1ccc(NC(=O)c2cc3n(n2)C(C(F)(F)F)CC(c2ccco2)N3)cc1 (centres undefined),-2.6,0,-2,3,10%,
N#CCCN(C(=O)Nc1ccc(Cl)cc1)c1ccccc1,3.2,-17,4,-6,-8%,
Cc1ccccc1N1CC(C(=O)Nc2nnc(SCc3ccccn3)s2)CC1=O (centres undefined),1.5,.,.,-5,.,
Cc1sc2ncnc(SC(C)C#N)c2c1C (centres undefined),0.7,-9,11,4,-2%,

# Overlap with the part before: three compounds, followed by the next part.
SMILES,RecA splice inh,YopH PTP inh,Arbovirus anti,Mtb betalactam,Mtb growth,others
N#CCCN(C(=O)Nc1ccc(Cl)cc1)c1ccccc1,3.2,-17,4,-6,-8%,
Cc1ccccc1N1CC(C(=O)Nc2nnc(SCc3ccccn3)s2)CC1=O (centres undefined),1.5,.,.,-5,.,
Cc1sc2ncnc(SC(C)C#N)c2c1C (centres undefined),0.7,-9,11,4,-2%,
CCOC(=O)C1=C(C)N(C)C(=S)NC1c1c(OCC)ccc2ccccc12 (centres undefined),.,.,-2,-4,-4%,
CCCCN=C1SC(C(=O)Nc2sc3c(c2C(=O)OC)CCC3)C(N)=C1C(=O)N1CCOCC1 (centres undefined),-1.0,.,.,-2,.,
O=C(CCc1nnc(CCCCc2ccccc2)o1)NCCN1CCCCC1=O,0.8,.,-2,1,.,
COc1ccc(N2CCN(C(=O)C3CCCN(S(=O)(=O)c4ccc(C)cc4)C3)CC2)cc1 (centres undefined),2.8,.,.,9,.,
CCOc1ccccc1N(CC(=O)Nc1ccc(S(=O)(=O)N2CCCC2)cc1)S(C)(=O)=O,-1.2,.,.,-7,.,
O=C1CC2(CCCCCC2)Oc2ccc(Cl)cc21,-0.2,.,.,-5,-6%,
CCC1Sc2ccc(S(=O)(=O)CCC(=O)Nc3cc(C)ccn3)cc2NC1=O (centres undefined),-0.1,.,.,0,.,
NC(=O)C(c1ccc(Br)cc1)c1ccc(C(=O)c2ccccc2)cc1 (centres undefined),3.7,.,.,3,.,
O=C1COc2ccc(C(=O)COC(=O)CCSc3ccc(Cl)cc3)cc2N1,-0.9,.,-3,-3,6%,
Cc1cccc(C)c1NC(=S)NC(C)CCc1ccccc1 (centres undefined),3.3,0,3,1,2%,
